Compound activity (PubChem)
Tg IFNy HTS = inhibitors of Toxoplasma gondii growth with IFN-gamma; Toxoplasma gondii growth in IFN-gamma-treated host cells; active compounds read low; reference of the scale not given here; AID 1259416; activity change, negative = inhibition, %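 (about 20 µM by stock and volumes)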; hit rate 3.8% among 69,000;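 active means below -70%; inconclusive means fit judged invalid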;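 further: host cells are HeLa cells infected with Toxoplasma gondii; parasite growth read as luciferase light; one replicate is shown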
* hit, by the source's call; ? = inconclusive; & = joins results of further samples. Some of the compounds tested; count on the stated rates, not on these rows.

SMILES	Tg IFNy HTS
Cc1ccc(C(Cc2ccsc2)NCc2cnn3c(C)cc(C)nc23)nc1 (stereo not given)	39.7
Fc1cccc(CN2CCOC3(CCN(CC4CCOC4)CC3)C2)c1 (stereo not given)	-0.5
CC(C)c1noc(C(C)n2ccnc2-c2cnc(N3CCCC3)nc2)n1 (stereo not given)	4.5
O=C(Cn1ncc2c(N3CCOCC3)ncnc21)NCc1ccc(C(F)(F)F)cc1	-35.0
CC(C)c1noc(C2CCN(C(=O)C(C)n3ccnc3C(C)C)CC2)n1 (stereo not given)	-0.2
CCOc1c(CNC2CSCCSC2)cccc1OC	14.3
Cc1nc(N2CCCCC2)ncc1C(=O)N1CCN2CCN(C)C(=O)C2C1 (stereo not given)	3.9
Cc1ccc(S(=O)(=O)N2CCC(c3nc(C(=O)N(C)C)c(C)o3)CC2)c(C)c1	17.2
c1ccc(-c2noc(CCNC3CCC4(CCNCC4)CC3)n2)nc1	10.2
C[C@H]1CN([C@@H](C)CO)C(=O)c2c(c3ccccc3n2C)-c2ccccc2CO[C@@H]1CN(C)C(=O)Nc1ccccc1C(F)(F)F	68.9
COc1ccc(CCNC(=O)Nc2cc(F)c(F)cc2Cl)cc1OC	-26.2
O=C(CC1CCCCC1)N1CCc2cc(S(=O)(=O)NC3CCCC3)ccc21	12.3
COc1ccc(N2CC(NC(=O)C(=O)c3c(C)[nH]c4ccccc34)CC2=O)cc1 (stereo not given)	2.3
Cc1cccn2cc(C(=O)N3CCCC4(CN(C)C(=O)O4)C3)nc12 (stereo not given)	-2.7
N#Cc1ccc(OCc2ccc(C(F)(F)F)cc2)cc1	-81.3*

A few values from above:
Result for COc1ccc(N2CC(NC(=O)C(=O)c3c(C)[nH]c4ccccc34)CC2=O)cc1 (stereo not given) under Tg IFNy HTS: 2.3
Result for CC(C)c1noc(C2CCN(C(=O)C(C)n3ccnc3C(C)C)CC2)n1 (stereo not given) under Tg IFNy HTS: -0.2
Result for CC(C)c1noc(C(C)n2ccnc2-c2cnc(N3CCCC3)nc2)n1 (stereo not given) under Tg IFNy HTS: 4.5
Result for c1ccc(-c2noc(CCNC3CCC4(CCNCC4)CC3)n2)nc1 under Tg IFNy HTS: 10.2
Result for Cc1nc(N2CCCCC2)ncc1C(=O)N1CCN2CCN(C)C(=O)C2C1 (stereo not given) under Tg IFNy HTS: 3.9
Result for CCOc1c(CNC2CSCCSC2)cccc1OC under Tg IFNy HTS: 14.3
Result for Fc1cccc(CN2CCOC3(CCN(CC4CCOC4)CC3)C2)c1 (stereo not given) under Tg IFNy HTS: -0.5

Next compounds.
SMILES	Tg IFNy HTS
O=C1C=CC(=O)C(C2=C3C(=O)N(CCc4ccccc4)CC(=O)N3CCC2)=C1	27.8
CC(=O)N1CC2(CCN(C(=O)[C@@H]3CCCCN3)CC2)CC1C(=O)O (stereo not given in full)	41.1
CCCNC(=O)N1[C@H](C#N)[C@H](c2ccccc2-c2ccc(OC)cc2)[C@@H]1CO	-57.8
CCOC(=O)c1nc(N2CCN(c3cc(Cl)ccc3C)CC2)c2ccccc2n1	-42.4
O=C(C[C@@H]1C=C[C@@H](NS(=O)(=O)c2ccc(F)cc2)[C@H](CO)O1)N1CCc2ccccc2C1	51.1
Cc1nc2c(c3c1[nH]c1ccccc13)C(=O)CC(C)(C)C2	-15.5
O=C(C[C@H]1CC[C@@H]2[C@H](COC[C@H](O)CN2CC2CCOCC2)O1)NCC1CCCCC1	-30.0
CCOc1ccccc1-c1nc(CN(c2cccc(OC)c2)S(=O)(=O)c2ccc(C)cc2)c(C)o1	-34.8
COc1ccc(-n2c(=O)c(C(=O)Nc3ccc(C)cc3F)c(O)c3cccnc32)cc1	21.3
CCCS(=O)(=O)N1C[C@@H]2COC[C@@]2(CN2CCOCC2)C1	7.3
O=C(NCCc1csc(-c2cccc(F)c2)n1)C(=O)Nc1ccccc1Cl	53.2
Cc1ccc(CN2CCC3(CC2)CC[C@@]2(C(=O)N4CCCC4)CN(C)C[C@@H]32)o1	-66.5
CCOCCn1c(N2CCCN(C)CC2)nc2ccccc21	13.5
O=C1NCC2(CCCN(C(=O)COCc3nc4ccc(F)cc4[nH]3)C2)O1 (stereo not given)	2.2
COc1ccc(C2NC(C(=O)O)Cc3c2[nH]c2ccccc32)cc1CN1CCN(c2ccc(F)cc2)CC1 (stereo not given)	1.7&109.3
CN1C(=O)CCC12CCC(NS(=O)(=O)c1cn(C)cn1)CC2 (stereo not given)	13.3
CCS(=O)(=O)Nc1ccc2c(c1)C(=O)N(C)C[C@@H](OC)[C@@H](C)CN(CC1CCCCC1)[C@H](C)CO2	-3.8
Cc1oc(-c2cccc(C(F)(F)F)c2)nc1CN(C)Cc1cnc(N)nc1	-2.4
CC(C)NC(=O)CCC1Nc2c3ccccc3nc(=S)n2C1=O (stereo not given)	12.7
O=C(NC(=O)c1ccno1)Nc1ccccc1Cl	57.6
CCCCN(C(=O)c1cc2cccnc2n(Cc2ccccc2)c1=O)c1ccccc1	0.7
CCCNC(=O)N1[C@H](CO)[C@H](c2ccc(C#Cc3cccc(F)c3)cc2)[C@@H]1C#N	-6.4
CC(NC(=O)C1(c2cccc(F)c2)CCOCC1)c1ccc(N2CCOCC2)cc1 (stereo not given)	-25.3
COc1ncccc1CN1C[C@H]2COC[C@@]2(Cc2nnc(C3CC3)o2)C1	2.1
Cc1ccsc1C(=O)N1CCc2[nH]cnc2C12CCCCC2	127.7
COc1cccc(C2CCCCN2S(=O)(=O)c2c(C)noc2C)c1 (stereo not given)	-2.8
O=C(c1cccc(F)c1)N1C[C@H]2CCCN(S(=O)(=O)c3ccc(Cl)s3)[C@H]2C1	-19.8
CCc1ccc(OCC(=O)N2CCCn3nc(C(=O)N4CCCC4)cc3C2)cc1	-7.5
CO[C@@H]1CN(C)C(=O)c2cc(NC(=O)c3nc4ccccc4s3)ccc2OC[C@@H](C)NC[C@H]1C	-66.4
NC(=O)c1cc(-n2ccc(-c3cnccn3)n2)cs1	27.7

Already shown: entries from further up.
SMILES	Tg IFNy HTS
Cc1ccc(C(Cc2ccsc2)NCc2cnn3c(C)cc(C)nc23)nc1 (stereo not given)	39.7
Fc1cccc(CN2CCOC3(CCN(CC4CCOC4)CC3)C2)c1 (stereo not given)	-0.5

(more compounds)
SMILES	Tg IFNy HTS
COC(CNc1cc(N2CCOCC2)nc(N)n1)c1cccs1 (stereo not given)	-0.2
CN(Cc1nc2ccccc2n1C)C(=O)[C@@H](N)Cc1cnc[nH]1	?
CC(C)N(Cc1ncc[nH]1)CC1CCC(=O)N1 (stereo not given)	5.6
CC(=O)[C@@]1(O)CC[C@H]2[C@@H]3C[C@H](C)C4=CC(=O)CC[C@]4(C)[C@H]3CC[C@@]21C	4.8&6.9
O=C(C1CCOC1)N1Cc2nccn2CC(Cn2cncn2)C1 (stereo not given)	-4.0
COc1ccc(-c2nc(NCCc3ccc(Cl)cc3)c3ccccc3n2)cc1	-63.8
COc1ccc(-c2nc(CN(c3ccccc3OC)S(=O)(=O)c3ccc(OC)cc3)c(C)o2)cc1	-36.3
Cc1ccc(C)c(-c2coc(-c3ccc(NC(=O)NC4CCCCC4)cc3)n2)c1	1.7
CCN1c2cc(C)ccc2-n2cccc2C12CCN(C(=O)c1ccc(F)cc1)CC2	?
Cc1ccsc1CN1CCC2(CC1)CC(OCC1CC1)CO2 (stereo not given)	-7.9
C=CCC1(OC)CCN(C(=O)c2coc(Cn3cnc4ccccc43)n2)CC1	-0.3
CCc1ccccc1NC(=O)C(=O)NCCc1sc(-c2ccc(F)cc2)nc1C	-2.0
O=C(Nc1ccc2c(c1)CCC2)C1CCCN(S(=O)(=O)Cc2ccccc2)C1 (stereo not given)	-61.2
COc1ccc(Cl)cc1CN(C)Cc1ncccc1C(=O)O	-34.2
CCN1CCc2ccc(=O)n(Cc3cccc(C)n3)c2CC1	-2.9
COC(=O)c1c(NCCC(C)C)c2cc(F)ccc2[nH]c1=O	-19.6
C=CCN(Cc1ccccn1)C(=O)c1ccc(-n2cccc2)cc1	-1.8
CCOc1ccc(-c2noc(-c3c(O)c4ccc(F)cc4[nH]c3=O)n2)cc1	55.8
CC(C)n1cnc2c1C(C(=O)NCC(C)(C)CO)N(Cc1cccnc1)CC2 (stereo not given)	-33.7
O=C(CC1=CCNCC1)N1CC[C@@H](c2ccc3ccccc3c2)[C@H](O)C1	100.6
Cc1ccc(CN2CCN(C3CCN(C(=O)c4ccc(Cl)cc4)CC3)C2=O)cc1	-18.6
O=C(c1cccnc1Oc1ccccc1)N1CCN(C2c3ccccc3-c3ccccc32)CC1	-33.7
CS(=O)(=O)N1[C@H](CO)[C@@H](c2ccccc2-c2ccccc2F)[C@@H]1C#N	-19.8
Cc1ccccc1S(=O)(=O)N1C[C@@H](O)COC[C@@H]2O[C@H](CC(=O)N3CCCCC3)CC[C@H]21	-9.5
CN(c1ccc(C(=O)NCCCn2ccnc2)cc1)S(C)(=O)=O	24.5
C[C@@H]1CN([C@H](C)CO)C(=O)c2cc(-c3ccncc3)cnc2O[C@@H]1CN(C)C(=O)CN1CCOCC1	-28.5
CN(Cc1ccccc1)Cc1cc(C(=O)NCC2(O)CCCCC2)no1	0.2
O=C(c1cc2cccnc2n(Cc2ccccc2)c1=O)N1CCN(c2ccccc2F)CC1	-51.7
CC1CCN(Cc2cccc(NC(=O)CCn3cnc4c(cnn4C)c3=O)c2)CC1	-6.5
O=C(CC1C(=O)NCCN1C(=O)c1cccs1)Nc1cccc(Cl)c1 (stereo not given)	-3.9
Cc1ccc2[nH]cc(-c3cccc(-n4cnnc4)c3)c2c1	-35.9
O=C(O)c1cc(Br)cc(S(=O)(=O)NCC2CCCO2)c1 (stereo not given)	5.1
CCS(=O)(=O)N1CCCn2cnc(CN3CCCC3=O)c2C1	3.4
CCc1cnc(N2[C@@H](C#N)[C@H](c3ccc(-c4cccc(F)c4)cc3)[C@@H]2CO)s1	14.2
COC(=O)c1cc(C)nc2c1c(=O)n(Cc1nc(-c3ccc(Cl)cc3)oc1C)c(=O)n2C	10.3
O=C1CC(C(=O)N2CCc3ccccc3C2)CN1CCc1c[nH]c2ccc(Cl)cc12 (stereo not given)	21.8
COc1ccc(-c2cc(C(C)C)nc(C(F)(F)F)n2)c(OC)c1OC	-53.6
COc1cccc(CC(=O)NCc2cnn3ccccc23)c1	19.4
COCC1(C(=O)NCCn2ccnc2)CCC1	17.7
CCCCN(CCCC)c1ccc(S(=O)(=O)c2ccccc2)cc1	-65.7
Cc1nn(C(=O)c2ccccc2)c2c1C(=O)CC(C)(C)C2	-29.6
CN1C(=O)c2cc(NC(=O)Nc3ccccc3Cl)ccc2OC[C@H]2O[C@@H](CC(=O)O)CC[C@@H]21	-3.7
Cc1nc(-c2ccccc2)[nH]c(=O)c1CC(=O)NCCn1ccnc1	10.3
Cn1cccc1C(=O)N1CC2(CCN(C(=O)c3cccnc3)C2)C1	6.2
COc1cccc(CCN2C[C@@H]3CCN(C(=O)c4cnccn4)CC[C@H]3S2(=O)=O)c1	-36.9
C[C@@H]1CCCn2cc(nn2)COCCNC1=O	-13.5
CC(Oc1ccc2c(c1)OCO2)C(=O)NCc1cccnc1-n1ccnc1 (stereo not given)	2.9
Cc1nn(C)cc1-c1csc(NC(=O)C(C)Oc2cccc(C(F)(F)F)c2)n1 (stereo not given)	3.3
CN1CC2(CCN(C(=O)CCCOCc3ccccc3)C2)OC1=O (stereo not given)	3.0
C=CC[C@@H]1CC=C[C@@H](C)N1C(=O)C(=O)c1ccco1	5.1
c1ccc(-c2nnc(-c3csc(-c4cccnc4)n3)o2)cc1	302.6
COCC#Cc1ccc([C@H]2[C@@H](CO)N3CCCCN(Cc4cccnc4)C[C@@H]23)cc1	-6.6
O=c1cc(CN2CCCC2)nc2n1CCCN(Cc1ccoc1)C2	-28.7
COc1ccc2c3c([nH]c2c1)[C@H](CO)N(C(=O)Nc1ccc(F)cc1)CC31CN(S(=O)(=O)c2ccc(C)cc2)C1	25.4
CCCCOc1ccc(OCCCN2CCOCC2)cc1	7.7&13.0
CCc1cnc(C)nc1N1CCC(N2CCCC2=O)CC1	-3.8
CSc1scc2c1-c1nn(C(C)=O)cc1CC2	133.8
CN1CCN(c2ncccc2CNC(=O)CNc2ccc(Cl)cc2)CC1	7.5
COCC(=O)Nc1ccc(-c2cc(OC)cc(OC)c2)cc1	76.0
COc1cc(CNCCc2ccc(S(N)(=O)=O)cc2)ccc1OCc1cccs1	0.8

Next section
SMILES	Tg IFNy HTS
Cc1nc2c(c(=O)n1C)CCN(C(=O)NCc1ccco1)CC2	8.0
O=C(NC[C@@H]1OC[C@@H]2CCN(Cc3ccsc3)C[C@H]21)c1ccco1	-16.7
COCCN(Cc1nccs1)C(=O)c1oc2cc(C)ccc2c1C	1.8
CCn1c(CNC(=O)C2C3C=CC4(CN(C(C)C)C(=O)C24)O3)nc2ccccc21 (stereo not given)	-33.8
C=C1/C(=C\C=C2/CCC[C@]3(C)[C@@H]([C@H](C)CCCC(O)(C(F)(F)F)C(F)(F)F)CC[C@@H]23)C[C@@H](O)C[C@@H]1O	11.5
Cc1ccccc1-c1nc(CN2CCN(C(=O)Nc3ccc(Cl)cc3)CC2)c(C)o1	2.5
Cc1c(N)cccc1Cn1ccc(OCCc2cccs2)cc1=O	28.8
Cc1ncc(-c2c(-c3ccccc3)ncn2CC(O)Cc2ccccc2)[nH]1 (stereo not given)	97.8
COc1ccc(-c2nc(C)c(CCNS(=O)(=O)c3ccc4c(c3)CCCC4)s2)cc1OC	-18.0
O=C1CCCN1CC1CCN(C(=O)c2ccc(-c3cncnc3)nc2)CC1	30.6
O=C(NCc1ccccc1)N1CCC2(CC1)Nc1ccccc1-n1cccc12	351.9
CCO[C@H]1CN(S(=O)(=O)c2cccnc2)[C@H]2CCCO[C@@H]12	-4.3
CN(C/C=C/c1ccccc1)C(=O)c1cc(Cn2ccc3ccccc32)[nH]n1	-16.9
OC1CSc2nc3ccccc3n2C1 (stereo not given)	-12.3

4 entries from above, as comma-separated lines.
SMILES,Tg IFNy HTS
Cc1c(N)cccc1Cn1ccc(OCCc2cccs2)cc1=O,28.8
Cc1ncc(-c2c(-c3ccccc3)ncn2CC(O)Cc2ccccc2)[nH]1 (stereo not given),97.8
COc1ccc(-c2nc(C)c(CCNS(=O)(=O)c3ccc4c(c3)CCCC4)s2)cc1OC,-18.0
O=C1CCCN1CC1CCN(C(=O)c2ccc(-c3cncnc3)nc2)CC1,30.6
